RecA intein inh = blocks M. tuberculosis RecA intein splicing; P9WHJ3; cell-free RecA intein splicing, fluorescence; inhibition, %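 (about 9 µM by stock and volumes)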; AID 2221; actives 0.75% (n = 290,000); in the data active = inhibition above about 30%;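 note: 0% = vehicle wells and 100% = reference inhibitor control wells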
Target sequence (P9WHJ3 whole entry, looked up): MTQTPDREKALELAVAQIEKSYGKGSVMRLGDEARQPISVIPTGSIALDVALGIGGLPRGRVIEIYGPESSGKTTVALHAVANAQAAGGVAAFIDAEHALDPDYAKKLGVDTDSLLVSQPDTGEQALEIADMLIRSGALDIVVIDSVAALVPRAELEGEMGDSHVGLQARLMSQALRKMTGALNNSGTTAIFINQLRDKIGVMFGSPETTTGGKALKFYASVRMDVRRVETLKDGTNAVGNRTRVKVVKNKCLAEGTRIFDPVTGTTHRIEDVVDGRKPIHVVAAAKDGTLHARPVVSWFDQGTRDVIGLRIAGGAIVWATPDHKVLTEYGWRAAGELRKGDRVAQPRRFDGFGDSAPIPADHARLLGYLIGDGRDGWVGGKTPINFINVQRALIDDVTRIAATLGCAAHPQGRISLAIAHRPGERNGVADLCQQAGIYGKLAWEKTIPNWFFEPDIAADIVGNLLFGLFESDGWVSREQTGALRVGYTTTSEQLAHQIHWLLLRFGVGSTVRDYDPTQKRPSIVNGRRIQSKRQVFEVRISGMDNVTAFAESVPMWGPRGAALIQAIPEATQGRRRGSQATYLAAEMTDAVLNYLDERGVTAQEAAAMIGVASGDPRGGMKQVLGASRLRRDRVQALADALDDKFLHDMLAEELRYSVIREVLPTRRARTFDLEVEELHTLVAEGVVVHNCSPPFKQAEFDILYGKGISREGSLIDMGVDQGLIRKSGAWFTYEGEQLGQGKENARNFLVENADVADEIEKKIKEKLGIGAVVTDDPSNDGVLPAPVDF
Mtb betalactam = beta-lactam sensitization of Mtb H37Rv; M. tuberculosis H37Rv growth with meropenem, percent inhibition; hits of this screen are not shown here; inhibition, % at 25 µM; actives 0.27% (n = 330,000);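 active = about 74% or more and at least 40 points above the plate without the antibiotic, then above 30% in a dose series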;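 note: growth measured after seven days incubation then overnight dye step; 0% = bacteria only wells and 100% = bacteria with antibiotic; twin plates without the antibiotic show which effects depend on it; some results filed as inactive read as strong as hits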
YopH PTP inh = inhibitors of Yersinia enterocolitica YopH tyrosine phosphatase; AID 898; actives 0.16% (n = 140,000); inhibition, %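 (about 10 µM by stock and volumes)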; fluorescence Ex485/Em525;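 active = inhibition of 50% or more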;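 note: controls were vehicle for no effect and minimum signal wells for full effect; inactives centre near -20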
Arbovirus anti = blocks arbovirus infection | arbovirus infection cell-based antiviral screen | inhibition, % at 10 µM | actives 0.37% (n = 200,000) | AID 1251;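 active = inhibition from about 30%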;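 note: bluetongue infection of BSR cells; cell survival read as ATP light after 72 h; 0% = infected wells without compound and 100% = uninfected wells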
Mtb H37Rv = M. tuberculosis H37Rv growth inhibitors, H37Rv strain (AID 1626); M. tuberculosis H37Rv growth inhibition; higher % means a stronger effect; inhibition, % at 10 µM; hits with a dose series show IC50 in µM; actives 0.95% (n = 220,000);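 active = confirmed in a dose series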;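 note: bacteria incubated seven days before Alamar blue readout; 0% = bacteria only wells and 100% = bacteria with antibiotic wells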
Arbovirus anti repeat = further read-out of Arbovirus anti, marked with its call; inhibition, %; measured here: 10K subset replicate screen; many hits read low in the repeat;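 first of two repeat runs on a subset; 0% = infected and 100% = uninfected wells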
Numbers without * were called inactive; x = no result given. Not all compounds are listed, so the mix of outcomes need not match the whole.

SMILES	RecA intein inh	Mtb betalactam	YopH PTP inh	Arbovirus anti	Mtb H37Rv	others
COc1ccc(C(=O)CN2CCN(c3ccc(F)cc3)CC2)cc1OC	-3.4	-1	1	-7	x
COC(=O)c1cn(-c2ccccc2)c(=O)c2ccccc12	2.7	-5	x	-1	7%
COc1cc2c(cc1OC)CN(C(=O)/C=C/c1ccccc1[N+](=O)[O-])CC2	-3.1	-5	x	x	x
CCCOc1ccc(C(=O)Nc2ccc(S(=O)(=O)N3CCN(C)CC3)cc2)cc1	3.1	0	x	x	x
COc1ccc(S(=O)(=O)NCC2CCCN(C(=O)CN3CCCCC3)C2)cc1 (configuration not stated)	1.3	1	x	-10	-2%
O=C(Nc1ccc2oc(-c3ccncc3)nc2c1)c1ccccc1F	0.0	-8	-25	-4	7%
O=C(CCN1C(=O)/C(=C/c2ccccc2Cl)SC1=S)N1CCOCC1	1.9	80	x	x	x
CCOC(=O)CNC(=O)CNC(=O)c1ccc(OCC(C)C)cc1	0.7	69	-37	-2	2%
CCCC1=C(C(=O)OCC)C(c2ccc(NC(C)=O)cc2)NC(=O)N1 (configuration not stated)	-2.0	0	-28	5	-2%
c1ccc(-c2ccnc3ncnn23)nc1	1.3	10	x	8	-1%
Cc1ccc(OC(C)C(=O)Nc2ccc(S(=O)(=O)Nc3cc(C)on3)cc2)cc1 (configuration not stated)	-0.3	19	-28	5	-6%
Cc1ccc(Nc2nnc(SCC(=O)Nc3cccnc3Cl)s2)cc1C	-2.0	98	-7	-3	1.6µM*
CC(=O)N(c1ccc2oc(=O)sc2c1)S(=O)(=O)c1ccc(C)cc1	-13	-10	x	x	x
O=C(COc1ccc(/C=C\[N+](=O)[O-])cc1)N1CCOCC1	-2.5	3	x	-2	4%
CSc1sc(C(=O)O)c2c1C(=O)CC(C)(C)C2	0.3	-5	x	x	-13%
N/C(CN1CCCC1=O)=N\O	-0.1	14	-30	-4	-4%
O=C(COc1ccccc1)Nc1cccc(-c2cn3cccnc3n2)c1	1.5	-17	x	x	x
COC(=O)c1ccc(C#Cc2ccccc2)o1	1.7	-1	x	x	0%
O=C(Nc1ccc(F)cc1)c1cn(-c2ccccc2)nc1-c1ccncc1	5.4	-11	-32	-4	11%
Cc1ccc(NC(=O)[C@H](NC(=O)[C@@H]2Cc3ccccc3CN2)c2ccccc2)cc1	6.0	47	x	x	x
O=C(NCCO)c1cc2c([nH]c3ccccc32)c(-c2ccccc2)n1	-1.2	2	x	x	x
O=C(CC1C(=O)N(c2ccccc2)C(=S)N1c1ccccc1)c1ccccc1 (configuration not stated)	14	-1	-9	14	3%
O=C(CSc1ccc(-c2ccccc2)nn1)NC1CCCCC1	3.8	-4	x	x	x
CC(C)N1CCN(Cc2ccncc2)CC1CCO (configuration not stated)	-2.6	16	x	2	7%
O=C(Cn1c(C(=O)NCC2CCCO2)cc2sccc21)c1ccccc1 (configuration not stated)	2.8	5	19	2	-1%
CCC(C)NC(=S)N1CCN(C(c2ccccc2)c2ccccc2)CC1 (configuration not stated)	8.3	-3	-5	14	3%
O=C(O)CCC(=O)c1ccc2ccc3cccc4ccc1c2c34	-169	4	x	x	1%
CC1(OC(=O)C2CCCC2)C(=O)C=C2C=C(c3ccc(C#N)cc3)OC=C2C1=O (configuration not stated)	1.6	-5	x	x	-4%
COCCCNC(=S)NNC(=S)NCCCOC	-1.9	-2	x	x	6%
O=C(CN1CCc2ccccc21)NC(=O)NCc1ccccc1	4.0	-1	x	5	0%
CCOC(=O)CNc1nc(C#N)nc(N2CCOCC2)n1	2.5	-5	-24	-4	-4%
Cc1ccccc1Nc1cc2ccccc2c(=O)[nH]1	71*	66	101*	-35	-5%
CCc1sc(C(=O)Nc2ccsc2C(=O)OC)cc1Br	1.5	11	x	x	6%
COc1ccc(NC(=O)c2cn(CCC#N)nc2-c2cccc([N+](=O)[O-])c2)cc1	-0.1	-1	x	x	-1%
CCC(=O)c1c(NC(C)C)cc(C)oc1=O	-6.5	-15	x	1	1%
Oc1ccc(-c2cnns2)c(O)c1	2.7	-2	18	1	1%
CCN(CC)C(=O)CN(c1ccc(C)cc1)S(=O)(=O)c1ccc(SC)cc1	2.5	-3	-6	-3	-10%
COc1ccc(/C=C2\SC(=S)N(CCC(=O)Nc3ccc(C(=O)O)cc3)C2=O)cc1OC	4.1	2	x	x	x
CCc1ccccc1NC(=O)c1noc(C(C)C)c1[N+](=O)[O-]	-1.6	-1	x	4	2%
COc1ccccc1OCCSc1nc2ccccc2c(=O)[nH]1	-0.9	7	-22	-3	-13%
O=c1[nH]c(CN2CCOCC2)nc2scc(-c3ccccc3)c12	3.2	8	x	5	1%
CN(CC(=O)Nc1ccccc1C(F)(F)F)C(=O)c1cc(-c2cccs2)nn1-c1ccccc1	-4.2	1	x	x	x
COc1ccc(N2CC(C(=O)OCC(=O)Nc3cc(C)on3)CC2=O)cc1 (configuration not stated)	0.3	-8	x	x	x
O=C(c1ccccc1)c1nn(-c2ccc(Cl)cc2)cc1C(=O)c1cc2ccccc2oc1=O	-6.6	96	-15	-19	x
CCNC(=O)NC(=O)COC(=O)c1cccc(NS(=O)(=O)/C=C/c2ccccc2)c1	0.8	1	-23	-1	2%
Cc1ccc(CN(Cc2ccco2)C(=S)Nc2ccccc2C)cc1	0.9	2	x	-1	10%
Cn1c(=O)oc2cc(S(=O)(=O)NCCC(=O)NCCc3ccc(Cl)cc3)ccc21	0.3	4	-24	5	2%
C=CCN(C(=O)CNC(=O)c1ccco1)C(C(=O)NC1CCCCC1)c1ccccc1F (configuration not stated)	2.5	-3	-27	-1	-4%
CCOc1cc(C2Nc3ccccc3C(=O)N2c2ccccc2)c(Br)cc1OCC(=O)O (configuration not stated)	-9.3	-6	-72	9	-8%
O=C(NC1CCCC1)C(c1ccncc1)N(C(=O)Cc1cccs1)c1ccccc1 (configuration not stated)	-0.5	-7	x	-4	-4%
CCn1cc(C(=O)OCC(=O)c2cc(C)n(-c3ccc(OC(F)F)cc3)c2C)c(=O)c2ccc(C)nc21	0.5	50	-26	2	5%
O=C(COC(=O)C1COc2ccccc2O1)NC(=O)Nc1ccc2c(c1)OCCO2 (configuration not stated)	-0.5	83	-33	0	>100µM*
O=C(Nc1ccn(Cc2c(F)c(F)cc(F)c2F)n1)c1cccc(Cn2cc([N+](=O)[O-])cn2)c1	3.9	-3	-14	-10	2%
O=C(NS(=O)(=O)Oc1ccc(F)cc1F)OC[C@@H]1CCCN2CCCCC12 (some centres not stated)	0.3	-4	x	x	x
Cc1cnc([N+](=O)[O-])n1CCOC(=O)NC(=O)c1ccc(C(F)(F)F)cc1	2.6	-3	x	8	-2%
O=C1CCC(/C=C/c2ccccc2)=NN1Cc1ccc(Cl)c(Cl)c1	11	2	7	-7	-2%
COc1cccc(NC(=S)N2CCCC2)c1	-3.0	2	-15	2	-13%
COc1cc(OC)c(C2=NOC(C(=O)NCCc3ccccc3)C2)cc1Cl (configuration not stated)	2.0	-1	-1	5	-3%
COc1ccc(S(=O)(=O)NCc2ccccn2)cc1OC	-1.0	4	x	x	x
CCn1nc(NC(=O)c2ccco2)c2cc3cc(C)ccc3nc21	-24	10	x	x	15%
Continuation:
SMILES	RecA intein inh	Mtb betalactam	YopH PTP inh	Arbovirus anti	Mtb H37Rv	others
Cc1ccc2nc(C)c(C(=O)N/N=C/c3ccc(C(=O)O)cc3)cc2c1	-2.6	-4	x	-4	4%
COc1ccc(/C=C2\SC(=O)N(CCC(=O)NCCCn3ccnc3)C2=O)cc1	-0.6	1	x	x	x
CCC(C)NC(=O)CCc1c(C)nc2nc(-c3cc(OC)cc(OC)c3)nn2c1C (configuration not stated)	-2.0	-9	-24	3	-9%
Cc1cc(C)c(NC(=O)CS(=O)CC(=O)N2CCN(c3ccc(F)cc3)CC2)c(C)c1 (configuration not stated)	-4.9	-13	-42	9	-3%
Cc1ccc(-c2nc3c(=O)n(C)c4ccccc4c3o2)cc1	0.7	2	-57	-12	-8%
COc1ccccc1NC(=O)Nc1ncccc1C	0.9	0	-33	7	x
COc1ccc(N(CC(=O)Nc2ccc3c(c2)OCO3)S(=O)(=O)c2ccccc2)c(OC)c1	5.1	1	-18	-16	-1%	Arbovirus anti repeat=-11
O=C(/C(=C(/[O-])c1ccccc1)[n+]1ccccc1)c1ccc([N+](=O)[O-])cc1	-0.9	2	-24	4	3%
CC(CCc1ccccc1)NC(=O)CNc1cccc([N+](=O)[O-])c1 (configuration not stated)	2.1	10	x	x	x
Cc1ccc(Nc2nc(NCCCN3CCOCC3)nc(N)c2[N+](=O)[O-])cc1C	-1.1	2	-10	14	11%
CCNS(=O)(=O)c1cc(Br)ccc1OC	-0.2	-6	-101	-1	5%
O=C(NC1CCS(=O)(=O)C1)N1CCCCC1 (configuration not stated)	0.4	1	-8	5	12%
COc1ccccc1N(C(=O)CNC(=O)c1ccco1)C(C(=O)NC1CCCC1)c1ccncc1 (configuration not stated)	0.1	-1	-28	3	5%
CCOc1cc2c(cc1OCC)C(C(=O)O)C(c1cc(OC)c(OC)c(OC)c1)N(C)C2=O (configuration not stated)	-0.2	2	-25	3	-5%
CCCCOc1ccccc1Cn1c(=O)oc2ccccc21	-0.9	14	-5	4	-1%
Cc1ccc2cc(C)c(SCC(=O)Nc3cc(C)on3)nc2c1	-0.8	1	x	x	x
COc1ccc(NC(=O)Cn2nc(C)c([N+](=O)[O-])c2C)cn1	-0.7	-6	x	5	-1%
Cc1cc(C)n(-c2ncnc3sc(C)c(C)c23)n1	-6.1	-5	6	-1	0%

Among those listed so far, 10 contain fluorine.
SMILES	RecA intein inh	Mtb betalactam	YopH PTP inh	Arbovirus anti	Mtb H37Rv	others
COc1ccc(C(=O)CN2CCN(c3ccc(F)cc3)CC2)cc1OC	-3.4	-1	1	-7	x
O=C(Nc1ccc2oc(-c3ccncc3)nc2c1)c1ccccc1F	0.0	-8	-25	-4	7%
O=C(Nc1ccc(F)cc1)c1cn(-c2ccccc2)nc1-c1ccncc1	5.4	-11	-32	-4	11%
CN(CC(=O)Nc1ccccc1C(F)(F)F)C(=O)c1cc(-c2cccs2)nn1-c1ccccc1	-4.2	1	x	x	x
C=CCN(C(=O)CNC(=O)c1ccco1)C(C(=O)NC1CCCCC1)c1ccccc1F (configuration not stated)	2.5	-3	-27	-1	-4%
CCn1cc(C(=O)OCC(=O)c2cc(C)n(-c3ccc(OC(F)F)cc3)c2C)c(=O)c2ccc(C)nc21	0.5	50	-26	2	5%
O=C(Nc1ccn(Cc2c(F)c(F)cc(F)c2F)n1)c1cccc(Cn2cc([N+](=O)[O-])cn2)c1	3.9	-3	-14	-10	2%
O=C(NS(=O)(=O)Oc1ccc(F)cc1F)OC[C@@H]1CCCN2CCCCC12 (some centres not stated)	0.3	-4	x	x	x
Cc1cnc([N+](=O)[O-])n1CCOC(=O)NC(=O)c1ccc(C(F)(F)F)cc1	2.6	-3	x	8	-2%
Cc1cc(C)c(NC(=O)CS(=O)CC(=O)N2CCN(c3ccc(F)cc3)CC2)c(C)c1 (configuration not stated)	-4.9	-13	-42	9	-3%
